Source: PubChem BioAssay (National Center for Advancing Translational Sciences (NCATS))
VDR inh – inhibitors of human vitamin D receptor; P11473; VDR-SRC2-3 peptide fluorescence polarization, 2 h; Potency, µM, inactives show max response, negative = inhibition, actives largely listed as inhibitors; 400,000 tested, 0.93% active; AID 504847; active = well fitted inhibition curve with a large enough effect; inconclusive = small, poorly fitted or top-dose-only effect, or another doubt; inactive = no such curve, though single readings can be large or run the other way; also: series mostly up to about 120 µM
Target sequence (P11473 whole entry, looked up): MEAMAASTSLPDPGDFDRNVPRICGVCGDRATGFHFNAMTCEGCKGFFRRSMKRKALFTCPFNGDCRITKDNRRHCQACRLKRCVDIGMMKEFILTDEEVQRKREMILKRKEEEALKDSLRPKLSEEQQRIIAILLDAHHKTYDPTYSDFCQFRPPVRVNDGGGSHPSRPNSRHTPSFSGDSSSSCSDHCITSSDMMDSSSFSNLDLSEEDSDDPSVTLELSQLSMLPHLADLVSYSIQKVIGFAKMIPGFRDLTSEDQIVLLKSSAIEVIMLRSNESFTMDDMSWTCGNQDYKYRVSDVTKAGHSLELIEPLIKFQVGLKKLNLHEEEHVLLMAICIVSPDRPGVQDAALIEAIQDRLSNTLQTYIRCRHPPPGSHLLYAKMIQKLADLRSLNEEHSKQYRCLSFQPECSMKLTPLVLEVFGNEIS
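FP read-out; VDR + SRC2-3 coactivator peptide; 23 nl compound by pintool; 2 h RT incubation; reagents held at 4 deg C, protected from light.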
* = called active by the depositor; ? = inconclusive; & = joins results of further samples. % is scaled to controls: 0 for no effect and ±100 for the full control effect; potency is read from the fitted curve at half-maximal effect. A portion of the library; count on the stated rates, not on these rows.

VDR inh | compound
5% | O=C(O)C1CCCN(S(=O)(=O)c2ccc(F)cc2)C1 (configuration not stated)
-12% | COc1ccc(N2C(=O)CC(NCc3ccncc3)C2=O)cc1 (configuration not stated)
-11% | CN1CCN(S(=O)(=O)c2ccc(N)cc2)CC1
-19% | Cc1cccc(OCc2nnc(SCC(=O)c3ccccc3)o2)c1
-1%&7% | COc1ccc(C)cc1NC(=O)CN1C(=O)COc2ccc(S(=O)(=O)N3CCC(C)CC3)cc21
12% | COc1ccccc1C(=O)NCCCNC(=O)c1cnccn1
-22% | COc1cc(CCCN2CCNC[C@@H]2Cc2ccc(O)cc2)cc(OC)c1OC
7% | COc1ccc(OC)c(CCNC(=O)c2cc3cccc4c3n2CCS4)c1
-3% | Cc1ccc(C2C(=O)N(C3CCCC3)CC(=O)N2CC2COc3ccccc3O2)cc1 (configuration not stated)
-6% | CCN(CC)c1nc(C(F)(F)F)nc2c1nnn2Cc1ccccc1
6% | CC(=O)N1CCCc2cc(S(=O)(=O)N3CCCC(C(=O)Nc4ccccc4C)C3)ccc21 (configuration not stated)
-15% | O=C(NCC1CCCN1S(=O)(=O)c1cccs1)C(=O)Nc1ccccc1Cl (configuration not stated)
15% | COc1ccc(Cc2nnc(SCC(=O)c3c(N)n(C4CC4)c(=O)[nH]c3=O)o2)cc1
-10% | O=C(Nc1cccc([N+](=O)[O-])c1)N1CCCc2ccccc21
-6% | CCC(C)NC(=O)Cn1cc(S(=O)(=O)N2CCCC2)c(S(=O)(=O)N2CCCC2)c1 (configuration not stated)
3% | O=C(CSc1cn(CC(=O)N2CCCCCC2)c2ccccc12)NCC1CCCO1 (configuration not stated)
13% | O=C(CSc1nnc(CNC(=O)c2ccccc2F)o1)Nc1ccc2c(c1)OCO2
-5% | CCOc1ccc(CCN2C(=O)C(=O)N([C@@H](CC(C)C)CN3CCC[C@@H]3CN3C(=O)C(=O)NC[C@@H]3Cc3ccccc3)C[C@@H]2Cc2ccc(O)cc2)cc1
9% | Cc1onc(-c2c(F)cccc2Cl)c1C(=O)N1CCOC12CCCCC2
? | COc1ccc2c(c1OC)C(=O)N1N=C(c3ccc(F)cc3)CC21 (configuration not stated)
-21%&2% | NC(=O)c1cccc(-c2cccc(OC(=O)NC3CCCCC3)c2)c1
-7% | CCOC(=O)c1oc2cc(O)ccc2c(=O)c1-c1csc(C)n1
1% | O=[N+]([O-])c1cc(C(F)(F)F)cc([N+](=O)[O-])c1NCCCN1CCOCC1
-14% | CN(C)S(=O)(=O)c1cccc(NC(=O)c2ccc(COc3ccccc3)cc2)c1
? | O=C(CCN1CCC(c2ccccc2)C1)c1cccs1 (configuration not stated)
0% | CCOC(=O)N1CCc2c(sc3c2c(=O)n(-c2ccc(CC)cc2)c(=O)n3CC(=O)Nc2ccc(C)cc2)C1
18% | COc1ccc(CNC(=O)CN2C(=O)CSc3ccc(S(=O)(=O)N4CCCC4)cc32)cc1
-28%&-2% | CCOC(=O)CNc1nc(Oc2ccc(=O)n(C)n2)nc(N(CC)CC)n1
? | C[C@H](NC(=O)c1ccccc1)C(=O)N1CCC2(CC1)NCCc1[nH]cnc12
13% | CCC(CC)NC(=O)c1oc2ccccc2c1COc1ccccc1
-14% | Cc1ccc(Cl)cc1N(C)C(=O)Cn1ncc2c([nH]c3ccccc32)c1=O
-9% | O=C(COC(=O)c1cccc(S(=O)(=O)N2CCOCC2)c1)NCc1ccc2c(c1)OCO2
-17% | COc1ccc(NC(=O)N(Cc2ccc(C)cc2)Cc2cccnc2)c(OC)c1
1% | CCCc1cc(Nc2c(C)n(C)n(-c3ccccc3)c2=O)n2c(nc3ccccc32)c1C#N
-14% | COc1ccc(NC(=S)NC(=O)c2csnn2)cc1
4% | CCOc1ccccc1CN1CCN(S(C)(=O)=O)CC1
1% | Cc1ccc(S(=O)(=O)N/N=C\c2cn(-c3ccccc3)nc2-c2ccccc2)cc1
-5% | COc1ccc(OC)c(C2=NOC(C(=O)NCc3ccco3)C2)c1 (configuration not stated)
14% | Cc1sc2nc(CC(N)=O)[nH]c(=O)c2c1-c1ccccc1
-37% | c1ccc([C@H]2CN3C(=N2)Sc2ccccc23)cc1
-9% | O=C(O)c1cccc(S(=O)(=O)N2CCc3ccccc3C2)c1
-11% | COc1ccccc1CN1CC(C(=O)NCCN2CCNC2=O)CCC1=O (configuration not stated)
17% | CC1(C)Cc2c(C#N)c(SCc3ccccc3)nc(N3CCOCC3)c2CO1
1% | Cc1[nH]c2ccccc2c1C1C(c2ccccc2)=NN=C(C(C)C)N1O (configuration not stated)
8% | CC(C)N(C)Cc1nnnn1CC(=O)N(C)Cc1cccc(Cl)c1
-1% | CC(=O)c1cccc(NC(=O)N2C3CCC2CC(O)(c2cccnc2)C3)c1 (configuration not stated)
79µM* | CCOC(=O)c1c(N)sc(C(=O)OCCOC)c1C
-4% | COc1ccc2c(CCNC(=O)CN3C(=O)c4ccccc4C3=O)c[nH]c2c1
12% | CCn1ccc(C(=O)NC2=C(C#N)CCC2)n1
2% | NC(=O)c1ccc(NC(=O)COC(=O)CCCOc2ccccc2)cc1
18% | CC(C)(C)c1cc(NS(=O)(=O)c2ccc3c(c2)OCCO3)on1
13% | CCC(NC(=O)c1ccccc1NC(=O)c1ccccc1)C(=O)O (configuration not stated)
-3% | CC1=CC(C)(C)N2C(=O)C3(NCCc4c3[nH]c3ccccc43)c3cccc1c32 (configuration not stated)
3% | CC(=O)Nc1cccc(C(=O)NC2CCCc3c2cnn3-c2cc(C)cc(C)c2)c1 (configuration not stated)
16% | COc1ccc(NS(=O)(=O)c2ccc(C)c(NC(=O)NC3CCCCC3)c2)cc1
-11% | Cc1ccc(-c2csc(NC(=O)C3=COCCO3)n2)cc1
5% | COc1cc(NC(=O)CN2C(=O)NC(c3ccccc3)(c3ccccc3)C2=O)c(C)cc1[N+](=O)[O-]
-3% | CC(=NCCc1ccccc1)C1=C(O)CCC1=O
-6% | CCOC(=O)c1c(NC(=O)C2CCCO2)sc(C(N)=O)c1C (configuration not stated)
-7% | COc1ccccc1NC(=O)Cn1c(=O)oc2ccccc21

Part of the list above in order of formula weight, highest first.
VDR inh | compound
-4% | COc1ccc2c(CCNC(=O)CN3C(=O)c4ccccc4C3=O)c[nH]c2c1
-3% | CC1=CC(C)(C)N2C(=O)C3(NCCc4c3[nH]c3ccccc43)c3cccc1c32 (configuration not stated)
-3% | CC(=NCCc1ccccc1)C1=C(O)CCC1=O

Next part
VDR inh | compound
-18% | Cc1ccc(N=Nc2ccc(N)cc2C)c(S(N)(=O)=O)c1
-12% | CCCSc1cc(N)cc([N+](=O)[O-])c1
-19% | CCS(=O)c1ccccc1C(=O)OCC(=O)Nc1cccc(S(=O)(=O)N2CCCCC2)c1 (configuration not stated)
-5% | O=C(CCc1ccccc1)Nc1cccnc1Cl
-12% | O=C(CSc1nc2ccccc2c(=O)n1Cc1ccco1)N1CCN(c2ccccc2)CC1
-6%&11% | Cc1ccc(C)c(N2CCN(C(=O)c3nn(C)c4c3CS(=O)(=O)c3ccccc3-4)CC2)c1
-8% | Nc1nc2ccc(Cc3ccncc3)cc2s1
6% | CN(C)/C=N/c1ncn(-c2ncc(C(F)(F)F)cc2Cl)n1
12% | O=C(CCNS(=O)(=O)c1ccc2c(c1)CCN2C(=O)C1CC1)Nc1ccc(F)cc1F
-9% | COc1ccc(NC(=S)NCC2CCN(c3ccc(OC)cc3)C2)cc1 (configuration not stated)
5% | Cc1ccc(-c2nn(CC(=O)Nc3cccc(C(F)(F)F)c3)c(=O)c3ccccc23)cc1
-19% | COc1ccc(S(=O)(=O)N2CCOCC2)cc1NC(=O)c1ccccc1-c1ccc(C(F)(F)F)cc1
6% | O=C(Cc1ccccc1)Nc1nnc(-c2ccco2)s1
-2% | Cc1cc(N/N=C/c2ccccc2)nc(N)n1
6% | O=C(CNC(=S)N(Cc1ccccc1)Cc1ccccc1F)NCCc1ccccc1

Ordered by value in VDR inh (highest first): some entries from above.
VDR inh | compound
13% | O=C(CSc1nnc(CNC(=O)c2ccccc2F)o1)Nc1ccc2c(c1)OCO2
2% | NC(=O)c1ccc(NC(=O)COC(=O)CCCOc2ccccc2)cc1
1% | Cc1[nH]c2ccccc2c1C1C(c2ccccc2)=NN=C(C(C)C)N1O (configuration not stated)
-3% | CC1=CC(C)(C)N2C(=O)C3(NCCc4c3[nH]c3ccccc43)c3cccc1c32 (configuration not stated)
-5% | O=C(CCc1ccccc1)Nc1cccnc1Cl
-14% | Cc1ccc(Cl)cc1N(C)C(=O)Cn1ncc2c([nH]c3ccccc32)c1=O

Looked up above.
VDR inh with Cc1ccc(C)c(N2CCN(C(=O)c3nn(C)c4c3CS(=O)(=O)c3ccccc3-4)CC2)c1 = -6%&11%
VDR inh with COc1ccc(NC(=S)NCC2CCN(c3ccc(OC)cc3)C2)cc1 (configuration not stated) = -9%

Carrying on:
VDR inh | compound
13% | CCOC(=O)c1c(C)[nH]c(-c2csc(C)n2)c1C
-7% | CN1CCc2c(sc3nc(NN)n(Cc4ccccc4)c(=O)c23)C1
-1% | Cc1ccc(Nc2nc3ccccc3c3nncn23)c(Cl)c1
9% | COc1cccc(C(=O)CN2CCN(S(=O)(=O)c3ccc(Cl)cc3)CC2)c1
-3% | CCOC(=O)N1CCC(NC(=O)c2cc(S(=O)(=O)NCCc3ccccc3)ccc2F)CC1
8% | CCOC(=O)c1cnc2c(OC)cccc2c1N1CCN(c2ccccc2OC)CC1
-6% | Cc1cc(C(=O)Nc2ccc(N3CCOCC3)c3nonc23)ccc1[N+](=O)[O-]
7% | COc1cc(NC(=O)Cn2nc(C(F)(F)F)c(Br)c2C)cc([N+](=O)[O-])c1
-4% | COc1ccc(-c2cc(C(=O)NC3CCCC3)c3ccccc3n2)cc1OC
-8% | COc1ccc(-c2nc3ccccc3o2)cc1NC(=O)c1ccc(-c2ccc(C)c(Cl)c2)o1
2% | O=C(Nc1ccc([N+](=O)[O-])cc1Br)c1cc2ccccc2nc1Cl
-12% | CCOc1ccc(C(=O)c2cnc3ccc(Cl)cc3c2S(=O)(=O)c2ccc(C)cc2)cc1
-1% | CCn1c(=O)c(C(=O)NCCCO)c(O)c2ccccc21
14% | CCCN(Cc1nnc(-c2ccccc2Cl)o1)C(=O)c1cc2ccccc2o1
-7% | Cc1cc(Cl)c(S(=O)(=O)Nc2cccc(O)c2)cc1OCC(N)=O
-7% | CCN1CCN(C(c2cccs2)C(C)NS(=O)(=O)c2ccc(C)cc2)CC1 (configuration not stated)
15% | COCCNC(=O)CN(C(=O)CCC(=O)Nc1ccccn1)c1ccc(C)cc1
23% | O=C(CC1SC(=O)N(Cc2cccc3ccccc23)C1=O)Nc1nccs1 (configuration not stated)
-5% | Cc1oncc1C(=O)NC1CCCCC1
10% | CCCn1ncc(CN2CCC(CO)(Cc3ccc(OC)cc3)CC2)c1C
-18% | Cc1ccc(S(=O)(=O)Nc2ccc(Br)cc2C(NCC(=O)O)c2ccccc2)cc1 (configuration not stated)
-11% | CC(=O)N1CCN(CC(O)Cn2c3ccccc3c3ccccc32)CC1 (configuration not stated)
-2% | C[C@]12CCC(=O)C=C1CC[C@@H]1[C@@H]2[C@@H](O)C[C@]2(C=O)[C@@H](C(=O)CO)CC[C@@H]12
-8% | CCn1c(=O)c2sccc2n2c(CCCC(=O)N3CCN(c4ccc(F)cc4)CC3)nnc12
1% | Fc1ccccc1COc1ccc(Br)cc1CNCC1CCCO1 (configuration not stated)
-12% | O=C(Cc1ccc(Cl)cc1)Nc1ccc(CN2CCCCC2)cc1
-2% | Cc1nnc(N2C(=O)C(=O)/C(=C(\O)c3ccc4c(c3)CC(C)O4)C2c2ccccc2)s1 (configuration not stated)
-2%&-1% | COc1ccc(N2CCN(C(=O)CNS(=O)(=O)c3ccc(Br)s3)CC2)cc1
4% | COc1cccc(C(=O)Nc2cc(=O)n(C)c(=O)n2C)c1
-10% | CCCCn1c(N)c(N(CCC(C)C)C(=O)C2CC(=O)N(Cc3ccc(C)cc3)C2)c(=O)[nH]c1=O (configuration not stated)
-7% | O=[N+]([O-])c1cccc(-c2nn(-c3ccccc3)cc2CO)c1
6%&-10% | COc1ccc(NC(=O)c2cc(S(=O)(=O)N3CCCCC3)c[nH]2)cc1Cl
-1% | CCN(CC(=O)Nc1c(F)cccc1F)C(=O)Cn1c(=O)cnc2ccccc21
8% | CCC(CC)c1nnc(NC(=O)c2cccnc2SC)s1
-8% | COc1ccc(NC(=O)CSc2nnc(NC(C)=O)s2)c([N+](=O)[O-])c1
-6% | Cc1cc(C)nc(-n2nc(C)cc2NC(=O)CNC(C)c2ccccc2)n1 (configuration not stated)
-4% | Cc1ccccc1OCCC(=O)N(Cc1ccccc1)c1c(N)n(Cc2ccccc2)c(=O)[nH]c1=O
8% | CN(Cc1c(C(=O)N/N=C/c2ccccc2F)nnn1-c1nonc1N)c1ccccc1
7% | Cn1c2ccc(F)cc2c2ncn(CCN3CCOCC3)c(=O)c21
-12% | O=C(Cn1cnc2cc([N+](=O)[O-])ccc2c1=O)Nc1ccccc1Cl
-13% | Cc1c(OC(C)C(=O)NCCCn2ccnc2)ccc2c3c(c(=O)oc12)CCC3 (configuration not stated)
-9% | Cc1noc(C)c1C(=O)OCC(=O)Nc1cccc(S(=O)(=O)N(C)C)c1
-10% | COc1ccc(OC)c(C(=O)CN2CCN(S(=O)(=O)c3ccc(Br)cc3)CC2)c1
-11% | CCOc1ccc(C(=O)Nc2ccc(N3CCN(C(C)=O)CC3)cc2)cc1[N+](=O)[O-]
